# Screening results from PubChem.
# Mtb growth: Mycobacterium tuberculosis H37Rv growth inhibition, cell based, confirmatory dose response (AID 1949); M. tuberculosis H37Rv growth inhibition; most inactive calls were filed without a number and no value below 0 was filed; one-dose inhibition, % at 10 µg/mL; IC50 in µg/mL for titrated hits; 100,000 compounds, 1.6% hits;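 active = confirmed in a dose series; inconclusive = about 50% or more but not retested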;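 note: bacteria grown 7 days with compound before Alamar blue readout; 0% = untreated bacteria and 100% = reference antibiotic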
# * marks the source's active call; other numbers are inactive results; i = inactive; ? = inconclusive. An excerpt; the hit share may differ from the screen's.
SMILES,Mtb growth
O=S(=O)(NCC1OCCc2ccccc21)c1ccccc1 (centres undefined),3%
CCc1cccc(C)c1NC(=O)COc1ccc(C#N)cc1,i
CCc1ccc(OC(=O)c2ccc(OC)cc2)c(Br)c1,i
CC(=O)Nc1sc(C)c(C)c1C(=O)OC(C)C,i
CCOc1cc(CN(CC)Cc2ccccc2)ccc1OC,i
CC(C)(C)SCCNC(=O)c1ccccc1SCc1ccccc1,0%
CCOc1ccc(C(=O)Nc2ccc(C#N)cc2)cc1OCC,3%
COc1ccc(C(=O)NCCCc2ccccc2)cc1,i
CC(=O)Nc1ccc(NC(=O)CN(c2cccc3ccccc23)S(C)(=O)=O)cc1,i
COc1ccc(N2C(=O)CC(Sc3nccc(C)n3)C2=O)c(OC)c1 (centres undefined),i
CC(=O)Nc1ccc(NS(=O)(=O)c2cc([N+](=O)[O-])ccc2C)cc1,i
Cc1ccccc1NC(=O)c1ccccc1-c1ccccc1,18%
COc1ccc2c(c1)c(=O)oc1c(C)c(OCC(=O)C(C)(C)C)ccc12,i
CC(C)c1cccc(OCCN2CCNCC2)c1,i
CCOC(=O)N1CCN(c2nc(C(F)(F)F)nc3c(C)cc(C)cc23)CC1,i
CC1=CS(=O)(=O)CC1Sc1nc(C)n[nH]1 (centres undefined),i
Clc1ccc(CN2CCN(c3ncnc4scc(-c5cccs5)c34)CC2)cc1Cl,2%
CNC(=O)CN(c1cccc2ccccc12)S(C)(=O)=O,i
Cc1ccc(N2/C(=N/c3nc(C)cc(C)n3)NC(=O)CC2C(=O)O)cc1 (centres undefined),0%
COc1ccc(C23CC4CC(CC(C4)C2)C3)cc1C(=O)N1CCOCC1,i
O=C(Nc1cccnc1)C(Cc1ccccc1)N1C(=O)c2ccccc2C1=O (centres undefined),i
N#C/C(=C\C=C\c1ccccc1)c1ccc(C#N)cc1,i
O=C(c1ccccc1)c1cc[n+](CCC[n+]2ccc(C(=O)c3ccccc3)cc2)cc1,i
O=S(=O)(NCc1ccc2c(c1)OCO2)c1ccc(-c2ccccc2)cc1,i
CCOC(=O)c1cc(OC(=O)c2cccnc2)n(-c2ccccc2)n1,2%
CCc1ccc(CN2CCC(C(=O)N3CCN(Cc4ccc5c(c4)OCO5)CC3)CC2)cc1,5%
CCSc1nnc(NC(=O)c2ccc(S(=O)(=O)N(C)C)cc2)s1,i
CCc1cccc(OCC(=O)Nc2cc(C(F)(F)F)ccc2Cl)c1,i
COc1ccc(NC(=O)C2(c3ccc(OC)c(OC)c3)CCCC2)c(OC)c1,i
COc1ccc(F)cc1S(=O)(=O)Nc1cccc(O)c1,i
CCOc1c(Br)cc(CNc2ncn[nH]2)cc1OC,i
CCOc1ccccc1Oc1c(C)oc2cc(OC(=O)N(C)C)ccc2c1=O,i
CCOC(=O)C1=C(CN2CCCCC2)NC(=O)NC1c1cc(C)ccc1C (centres undefined),1%
COC(=O)c1c(NC(=S)Nc2cccnc2)sc2c1CCCCC2,i
O=C(COc1ccc(Br)cc1)N1CCN(S(=O)(=O)c2ccc(F)cc2)CC1,i
COC(=O)c1cccc(COCC(F)(F)C(F)F)c1,i
O=C(Nc1ccc2c(c1)OCCO2)C1CC2CCCC(C1)C2=O (centres undefined),i
N#Cc1ccc(/C=N/c2sc3c(c2C(N)=O)CCCC3)cc1,8%
CC1=C(C(=O)Nc2ccccc2Cl)C(c2cccs2)NC(=O)N1 (centres undefined),i
Cc1cn(CC(C)C)c(=O)n(CC(C)C)c1=O,1%
O=C(CCCc1ccccc1)Nc1ccc(S(=O)(=O)N2CCCC2)cc1,i
Cc1onc(-c2ccccc2)c1C(=O)Nc1ccn(Cc2ccc(Cl)cc2)n1,26%
CCOC(=O)c1ccc(Oc2nc(NC(C)C)nc(NC(C)(C)C)n2)cc1,8%
CCSc1nnc(-c2ccc(C)c(NC(=O)c3ccc(F)cc3)c2)c2ccccc12,i
C=CCNc1cc(N2CCN(S(=O)(=O)c3ccc(C)cc3)CC2)ccc1[N+](=O)[O-],i
CCC(=O)Oc1ccc(C(=O)Nc2ccc(OC)cc2OC)cc1,6%
O=C(Nc1ccc(F)c(Cl)c1)C1COc2ccccc2O1 (centres undefined),35%
CSc1cccc(NC(=O)C2CCN(S(C)(=O)=O)CC2)c1,i
Cc1ccc(CC(=O)N2CCCCC2C)cc1 (centres undefined),i
CCOc1ccccc1C(=O)NC(C)c1ccc2c(c1)OCO2 (centres undefined),i
COc1cccc(S(=O)(=O)Nc2ccc(C(=O)N3CCCC3)cc2)c1,1%
Fc1c(F)c(F)c(Cn2ccc(NC(=S)NCC3CCCO3)n2)c(F)c1F (centres undefined),i
O=C(Nc1sc2c(c1C(=O)NC1CC1)CCCCCC2)c1cccnc1,i
Cc1ccc(C(C)C)c(OCC(O)CN2CCN(C)CC2)c1 (centres undefined),i
Cc1c(NS(=O)(=O)c2ccccc2C#N)c(=O)n(-c2ccccc2)n1C,i
COc1cc(S(=O)(=O)N2CCN(c3ccccc3)CC2)c(OC)cc1Cl,5%
CCN1CCCC1CNC(=O)C12CC3CC(CC(C3)C1)C2 (centres undefined),i
O=C1c2cccc3cc([N+](=O)[O-])cc(c23)C(=O)N1CCc1ccccc1,i
CC(O)CC(=O)NNC(=S)NC(C)c1ccccc1 (centres undefined),i
COc1ccc(CCNC(=O)C2Cc3ccccc3CN2S(=O)(=O)c2cccs2)cc1OC (centres undefined),i

# Pulled by structure from the entries so far, 4 records:
SMILES,Mtb growth
Clc1ccc(CN2CCN(c3ncnc4scc(-c5cccs5)c34)CC2)cc1Cl,2%
COc1ccc(NC(=O)C2(c3ccc(OC)c(OC)c3)CCCC2)c(OC)c1,i
COC(=O)c1cccc(COCC(F)(F)C(F)F)c1,i
CCSc1nnc(-c2ccc(C)c(NC(=O)c3ccc(F)cc3)c2)c2ccccc12,i

# The listing continues:
SMILES,Mtb growth
O=C(CN1CCOCC1)NCCCNc1ccc([N+](=O)[O-])cc1,i
COC(=O)c1cc(-c2ccccc2)sc1NC(=S)Nc1ccccc1SC,i
CCOc1ccc(-n2c(SCc3nc(-c4ccc(C)cc4)no3)nnc2-c2ccncc2)cc1,i
CCCC12CN(C(=S)Nc3ccccc3)CC(C)(CN(C(=S)Nc3ccccc3)C1)C2=O,i
COc1ccc(OC)c(NC(=O)COc2ccc(S(=O)(=O)NC(C)C)cc2)c1,1%
CCOC(=O)c1ccc(-n2[nH]c(-c3ccccc3)cc2=O)cc1,6%
Cc1cc(C)nc(-n2nc(C)cc2Nc2ccccc2)n1,?
N#CC1=C(N)SC(N)=C(C#N)C1c1cccc(Cl)c1,i
COc1ccc(-c2nn(-c3ccccc3)cc2C(=O)O)cc1[N+](=O)[O-],i
CCOc1ccc(NC(=O)N2CCN(c3ccc(OC)cc3)CC2)cc1,i
Cc1cc(C)c2[nH]c3ccccc3c2n1,1.3µg/mL*
CC1CCN(c2ccc(Nc3ncnc4ccccc34)cc2)CC1,2%
CCc1nnc(NC(=O)C(C(C)C)N2C(=O)c3ccccc3C2=O)s1 (centres undefined),i
CCc1ccc(N(CC(=O)Nc2ccc(OC)cc2)S(=O)(=O)c2ccccc2)cc1,i
O=C(Cn1nnc(-c2ccccc2F)n1)Nc1ccccc1Br,i
COc1ccccc1N1CCN(C(=O)Nc2ccc([N+](=O)[O-])cc2)CC1,i
Cc1ccc(Cl)cc1N1CCN(C(=S)Nc2ccc(S(N)(=O)=O)cc2)CC1,i
Cc1ccc2c(C)c(C(=O)Nc3sc4c(c3C(N)=O)CCCC4)oc2c1,i
CCOc1ccccc1OCCOc1c(C)cccc1C,3%
Cc1nnc(SCC(=O)n2c3c(c4ccccc42)CCCC3)s1,i

# At a glance, 9 of the compounds above.
SMILES,Mtb growth
COC(=O)c1cc(-c2ccccc2)sc1NC(=S)Nc1ccccc1SC,i
CCOc1ccc(-n2c(SCc3nc(-c4ccc(C)cc4)no3)nnc2-c2ccncc2)cc1,i
CCCC12CN(C(=S)Nc3ccccc3)CC(C)(CN(C(=S)Nc3ccccc3)C1)C2=O,i
COc1ccc(OC)c(NC(=O)COc2ccc(S(=O)(=O)NC(C)C)cc2)c1,1%
CCOC(=O)c1ccc(-n2[nH]c(-c3ccccc3)cc2=O)cc1,6%
Cc1cc(C)nc(-n2nc(C)cc2Nc2ccccc2)n1,?
N#CC1=C(N)SC(N)=C(C#N)C1c1cccc(Cl)c1,i
COc1ccc(-c2nn(-c3ccccc3)cc2C(=O)O)cc1[N+](=O)[O-],i
CCOc1ccc(NC(=O)N2CCN(c3ccc(OC)cc3)CC2)cc1,i

# (next part)
SMILES,Mtb growth
Cc1ccc(S(=O)(=O)N(CC(=O)N2CCOCC2)Cc2ccc(Cl)cc2Cl)cc1,4%
CCOc1ccc(N2C(=O)CC(SCC(=O)Nc3ccccc3)C2=O)cc1 (centres undefined),i
CC1CN(Cc2nc3c([nH]2)c(=O)[nH]c(=O)n3C)CC(C)O1 (centres undefined),6%
C#CC(C)(C)OC(=O)Nc1ccccc1,i
O=C(O)C1CC=CCC1C(=O)Nc1ccc(Br)c2cccnc12 (centres undefined),i
Cc1oc(-c2ccccc2)cc1C(=O)Nc1ccc(N(C)C)cc1,6%
O=C(CSc1nnc(CCc2ccccc2)n1-c1ccccc1)N1CCCC1,i
Cc1ccccc1OCc1nnc(SCC(=O)c2ccc3c(c2)Cc2ccccc2-3)n1C,i
CCc1cc(=O)oc2cc(C)cc(OCc3c(F)cccc3Cl)c12,i
COC(=O)c1ccc(COC(=O)c2cnccn2)cc1,?
Cc1cccc(Cl)c1OCCN1CCCC1,i
O=C(CN1C(=O)C2C3C=CC(C4CC34)C2C1=O)Oc1ccccc1 (centres undefined),i
CCOc1ccc2nc(SCCC#N)nc(C)c2c1,i
CSc1nc(C)cc(OCCNS(=O)(=O)c2ccc(C)cc2)n1,0%
O=C(Nc1ccc(Cl)cc1)N1CCN(c2ccccn2)CC1,i
CN(CC(=O)Nc1nc2ccccc2s1)S(=O)(=O)c1ccccc1,i
Clc1cccc(C2C=C(c3ccc(Cl)cc3Cl)Nc3nnnn32)c1 (centres undefined),3%
COc1ccccc1OCC(=O)Nc1cccc(-c2nc3ccccc3o2)c1,1%
CCc1ccc(OCC(O)CN(CCO)CCO)cc1 (centres undefined),5%
Cc1ccc(OCC(=O)N2CCC(C)CC2)c(C)c1,i

# Structural class: the compounds so far with bromine.
SMILES,Mtb growth
CCc1ccc(OC(=O)c2ccc(OC)cc2)c(Br)c1,i
CCOc1c(Br)cc(CNc2ncn[nH]2)cc1OC,i
O=C(COc1ccc(Br)cc1)N1CCN(S(=O)(=O)c2ccc(F)cc2)CC1,i
O=C(Cn1nnc(-c2ccccc2F)n1)Nc1ccccc1Br,i
O=C(O)C1CC=CCC1C(=O)Nc1ccc(Br)c2cccnc12 (centres undefined),i

# Next section:
SMILES,Mtb growth
COc1ccccc1-c1nc(Nc2nc(C)cc(C)n2)n[nH]1,i
Cc1ccc(N2CCN(S(=O)(=O)N(C)C)CC2)c(C)c1,i
OCC12COC3c4ccccc4C(OC1)N32 (centres undefined),i
O=C(Nc1cccnc1)c1ccc(COc2ccccc2Br)o1,i
CC(=O)Nc1ccc(N2C(=O)CC(N3CCN(c4ccccn4)CC3)C2=O)cc1 (centres undefined),i
Cn1c(CC(=O)Nc2ccccc2)nnc1SCC(=O)N1c2ccccc2Sc2ccccc21,1%
CSc1ccccc1NC(=O)CN(Cc1ccc(Cl)cc1)S(=O)(=O)c1ccccc1,4%
O=C(CSc1nc2ccccc2s1)N1CCCC1,i
COc1ccc(NC(=S)Nc2ccccc2Cl)cn1,i
COC(=O)C1=C(C)NC(=S)NC1c1cc(OC)c(O)c(I)c1Cl (centres undefined),i
CCOc1ccccc1OCCOCCOc1cccc2ccc(C)nc12,i
CCCn1nnc(NC(=O)COc2ccc(Br)cc2)n1,?
Cc1ccc(S(=O)(=O)N(CC(=O)Nc2ccc(Br)cc2F)Cc2ccccc2)cc1,i
CN(CC(=O)O)S(=O)(=O)c1ccc2oc3ccccc3c2c1,i
Cc1nnc(NC(=O)CSc2nc3ccccc3o2)s1,i
CCOC(=O)c1cccc(NC(=S)NC(=O)c2ccccc2Cl)c1,i
O=S(=O)(c1ccc(F)cc1)N1CCN(CCCc2ccccc2)CC1,6%
COc1cc(S(=O)(=O)Oc2c(Cl)cc(Cl)c3cccnc23)ccc1Cl,i
O=C(Nc1ccc(Cc2ccc(NC(=O)C3CC3)c(O)c2)cc1O)C1CC1,i
CCOc1ccc(C(=O)O/N=C(\N)c2ccncc2)cc1OCC,i
CN1C(=O)CC(N2CCN(C/C=C/c3ccccc3)CC2)C1=O (centres undefined),i
CCc1ccccc1N(CC(=O)N1CCN(c2cc(Cl)ccc2C)CC1)S(C)(=O)=O,2%
O=C(NC(=S)Nc1ccccc1N1CCOCC1)c1ccc(F)cc1Cl,4%
O=C(NCC1COc2ccccc2O1)c1cc(Cl)cc(Cl)c1 (centres undefined),2%
Cc1ccc2c(Cl)c(C(=O)Nc3ncccn3)sc2c1,10%
CCC(Sc1nncn1C)C(=O)Nc1nc2ccccc2s1 (centres undefined),i
COC(=O)c1cc(OC)c(OC)cc1NC(=O)c1cc(-c2cccnc2)nc2ccc(Cl)cc12,i
O=C(Oc1ccc(C(=S)N2CCOCC2)cc1)c1cccc([N+](=O)[O-])c1,i
Cc1c(-c2ccccc2)sc(Br)c1C(=O)N1CCOCC1,i
CN(C)c1nc(Nc2ccc(F)cc2)nc(-n2cccn2)n1,?
COc1ccccc1CNC(=O)c1cnccn1,i
COc1cc(C2CC(=O)NC(SC)=C2C#N)ccc1OCc1ccccc1 (centres undefined),i
Cc1ccc2oc(-c3cccc(NC(=O)c4ccc(Br)o4)c3)nc2c1,i
COCCNS(=O)(=O)c1cc(-c2nnc3c4ccccc4c(C)nn23)ccc1C,i
CC1(C)CC(O)(C#CC#CC2(O)CC(C)(C)NC(C)(C)C2)CC(C)(C)N1,i
CCn1c(CNC(=O)c2cccc([N+](=O)[O-])c2)nnc1SCC(=O)Nc1ncccc1C,i
NC(=O)C1CCN(CC(=O)Nc2ccc(Cl)cc2C(=O)c2ccccc2)CC1,0%
O=C(c1cc2ccccc2o1)c1nc2c(n1O)CCCCC2,i
